# Source: PubChem BioAssay (National Center for Advancing Translational Sciences (NCATS))
# GLA inh pH 4.5: blocks human alpha-galactosidase A at pH 4.5. purified enzyme, 4-MU-alpha-Gal fluorescence, pH 4.5. 230,000 tested, under 10 active. P06280. AID 1467. activity change, negative = inhibition, % at 105 µM; inconclusive = small, poorly fitted or top-dose-only inhibition, or a rising curve; inactive = flat fitted curve, though single readings scatter; no compound was filed as active;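 further: 0% = full activity with enzyme and -100% = basal without enzyme; dose as in the result columns while the protocol names 77 µM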
# Target sequence (P06280 whole entry, looked up): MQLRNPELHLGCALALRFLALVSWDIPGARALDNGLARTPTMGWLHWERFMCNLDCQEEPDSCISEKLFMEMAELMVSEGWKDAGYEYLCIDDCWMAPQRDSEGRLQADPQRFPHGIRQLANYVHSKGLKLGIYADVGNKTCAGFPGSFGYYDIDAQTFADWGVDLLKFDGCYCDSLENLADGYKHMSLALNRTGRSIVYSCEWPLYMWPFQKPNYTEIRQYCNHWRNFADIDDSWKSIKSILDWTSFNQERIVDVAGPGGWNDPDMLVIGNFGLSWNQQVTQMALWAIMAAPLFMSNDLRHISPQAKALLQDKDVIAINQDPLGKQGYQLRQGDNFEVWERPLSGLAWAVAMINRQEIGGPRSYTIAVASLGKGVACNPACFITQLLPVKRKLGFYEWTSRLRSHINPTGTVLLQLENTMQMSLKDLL
# miR-21 reporter: raises the signal of a miR-21 reporter; Potency, µM (series often up to 38.3 µM), inactives show at the highest dose reporter change, positive = more light; 340,000 tested, under 10 active; AID 2288; HeLa miR-21 FLuc reporter, luciferase, 48 h; active = well fitted rising curve with a large enough effect; inconclusive = small, poorly fitted or top-dose-only effect; inactive = no such curve, though single readings can be large or run the other way;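 further: % of control where 0% means no effect; miR-21 action dims this reporter so a rising signal means less miR-21 action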
#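 HeLa cells stably expressing CMV-driven firefly luciferase with a downstream miR-21 binding sequence, endogenously expressing miR-21, were treated with titrations (up to about 40uM final) for 48 hours at 37 degree Celsius. Luciferase luminescence was read after lysis.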
# Rango-impB inh: inhibitors of Rango-importin beta complex formation; Q14974; Rango CFP/YFP FRET sensor + importin beta, 45 min; Potency, µM (highest dose often 92.2 µM), without a hit: top-dose inhibition of complex formation; 340,000 compounds, 0.031% hits; active = rising FRET ratio curve, often small or poorly fitted; inconclusive = mostly compound fluorescence or quenching in the first reads; inactive = flat curves in all reads;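 further: potency means the concentration at half of the fitted maximal effect; 0% = DMSO wells and 100% = buffer wells lacking importin beta; nearly all actives have a fitted effect of over 15% in size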
#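 FRET biosensor (snurportin 1 IBB flanked by EYFP and cerulean), 50 nM, with compound 5 min, then 0.125 microM importin beta in PBS, 1 mM DTT, 0.02% Tween-20, 0.1% BSA. CFP/YFP ratio read after 45 min at room temperature; pre-read flags interference.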
# Rango dissoc inh: inhibitors of RanGTP-induced Rango-importin beta complex dissociation; O95149+P62826; Biochemical FRET Rango-importin beta, RanGTP-induced dissociation; Potency, µM (series often up to 46.1 µM), inactives show at the highest dose activity change, negative = inhibition; 340,000 compounds, 0.071% hits; AID 540253; active means falling FRET ratio curve, often poorly fitted, with flat reads before Ran was added; inconclusive means other falling curves, or compound fluorescence or quenching; inactive means flat or rising ratio curve;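 further: potency means the concentration at half of the fitted maximal effect; % of control where 0% means no effect; nearly all actives have a fitted effect of over 45% in size; -100% = wells without RanGTP and RCC1; the record marks most hits as doubtful in a second field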
#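 FRET read at 45 min, room temperature: inhibitors block the CFP/YFP signal rise when RanGTP (0.6 uM Ran, 2 mM GTP, 0.2 uM RCC1) frees Rango (0.1 uM) from importin beta (0.25 uM). Pre-read after 5 min compound exposure flags interference.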
# * marks the source's active call; other numbers are inactive results; u = inconclusive; x = no result given; & = joins results of further samples. These rows are one share of the data; count on the stated rates, not on these rows.
SMILES,GLA inh pH 4.5,miR-21 reporter,Rango-impB inh,Rango dissoc inh
O=C(Nc1ccc2c(c1)N(S(=O)(=O)c1cccs1)CCC2)c1c(F)cccc1F,x,x,-0.4%,u
CCOc1ccccc1NC(=O)N1CCC(NC(=O)c2ccccc2C)CC1,3,-4%,3.2%,5%
O=C(Nc1ccccc1)c1nsnc1C(=O)Nc1ccccc1,-2,-20%,1.8%,-25%
O=C(NC(=S)Nc1ccc(N2CCOCC2)cc1)c1cncc(Br)c1,6,-8%,2.5%,-6%
Cc1cc(C)c(S(=O)(=O)Nc2ncn[nH]2)c(C)c1,x,-5%,-1.5%,2%
CN(C)c1ccnc(C(=O)O)c1,1,0%,-2.3%,0%
COC(=O)c1cc(C(=O)N2CCN(c3ncccn3)CC2)cc([N+](=O)[O-])c1,x,-1%,-3.3%,-11%
CSCC[C@H](NC(=O)OC(C)(C)C)c1nnc(SCc2ccc(F)cc2)o1,-8,16%,1.2%,-4%
Cc1cc(Cl)ccc1NC(=S)NCC(O)c1ccccc1 (configuration not stated),x,-8%,3.7%,6%
CCCCN(CC)CCCNC(=O)C1c2ccccc2C(=O)N(C)C1c1cn(C)c2ccccc12 (configuration not stated),3,-6%,0.9%,10%
COCC(C)NS(=O)(=O)c1ccc(C(=O)NCCCn2ccc3ccccc32)cc1 (configuration not stated),x,2%,-2.9%,-8%
CS(=O)(=O)Nc1ccc(C(=O)N2CCN(c3ccccc3)CC2)cc1,6,-4%,-2.0%,-7%
Cc1ccc(C(=O)N/N=C\c2cccnc2)s1,x,-28%,4.5%,18%
CCOc1ccc(S(=O)(=O)NCCC(=O)N2CCCC(C)C2)cc1 (configuration not stated),x,x,5.7%,6%
COc1ccc(CCNC(=O)CN(c2ccc(OC)cc2)S(C)(=O)=O)cc1,8,1%,-2.7%,4%
N=c1sccn1CC(=O)Nc1ccc([N+](=O)[O-])cc1Cl,-8,2%,-2.8%,-15%
COc1ccc(NC(=O)c2cccc3cccnc23)cc1S(N)(=O)=O,x,-32%,0.0%,-2%
O=C(CCCCCN1C(=O)c2cccc3cccc(c23)C1=O)NCc1ccco1,12,1%,-1.8%,5%
C#CCN1C(=O)C(O)(CC(=O)c2ccc(OC)c(OC)c2)c2ccccc21 (configuration not stated),-2,3%,2.2%,1%
Cc1ccc(/C=N/NC(=O)CC2N=C(Cc3ccccc3)NNC2=O)cc1 (configuration not stated),x,x,6.0%,-2%
CN1C2CCC1CC(NC(=O)CSCc1ccc(Cl)cc1Cl)C2 (configuration not stated),-4,-6%,0.7%,-4%
O=C(Nc1nccs1)C1CCCCN1S(=O)(=O)c1ccccc1 (configuration not stated),5,1%,-2.1%,29%
Cn1c(=O)c2c(nc(SCC(=O)c3ccc(F)cc3)n2C)n(C)c1=O,3,4%,1.7%,12%
COc1ccc(CNC2CC(C)N(C)CC2C)cc1OC (configuration not stated),x,-6%,1.6%,-5%
NCC(=O)c1cccc2ccc[n+]([O-])c12,-2,1%,-0.5%,17%
O=C(Nc1cc(S(=O)(=O)N2CCCC2)ccc1Cl)c1ccncc1,x,x,-2.2%,-19%
Cc1cc(OCC(=O)NC(C)C)ccc1Cl,-6,-22%,4.3%,-5%
COc1cc(C)ccc1OCCOCCOc1ccccc1Br,-8,-21%,-0.8%,13%
Cc1nc(CNS(=O)(=O)c2ccc(Oc3ccccc3)cc2)cs1,-6,10%,5.7%,5%
CCOC(=O)C(C)Sc1ncnc2c1c(-c1ccccc1)cn2-c1ccc(OC)cc1 (configuration not stated),u,-13%,-2.1%,-9%

# As entered above:
# `Cn1c(=O)c2c(nc(SCC(=O)c3ccc(F)cc3)n2C)n(C)c1=O` in GLA inh pH 4.5 has 3
# `NCC(=O)c1cccc2ccc[n+]([O-])c12` in Rango-impB inh has -0.5%

# The list continues.
SMILES,GLA inh pH 4.5,miR-21 reporter,Rango-impB inh,Rango dissoc inh
Cc1ccc(S(=O)(=O)NC2c3cccc4cccc(c34)C2Sc2nc(C)cc(C)n2)cc1 (configuration not stated),3,10%,0.5%,3%
CC(=O)c1ccc(S(=O)(=O)Nc2ccc(C(=O)NCC(c3cccs3)N3CCOCC3)cc2)cc1 (configuration not stated),x,x,-3.3%,21%
Cc1cc(C)cc(NC(=O)/C=C/c2ccc([N+](=O)[O-])s2)c1,7,-2%,u,1µM*
OCCC1CN(CCCn2cccn2)CCN1Cc1ccccc1 (configuration not stated),2,0%,-2.2%,0%
CCCCOc1cc(CC2CNC(=O)N2)ccc1OC (configuration not stated),-2&0,x,-2.2%,14%
NS(=O)(=O)c1ccc(NC(=O)COC(=O)COc2ccc(Cl)cc2)cc1,9,1%,4.3%,-9%
NCC12CC3CC(C1)CC(CN)(C3)C2,-4,-6%,-6.9%,-12%
O=C(NCCN1CCCCC1)Nc1cccc(F)c1,x,4%,u,28%
CCCOc1ccc(C(=O)N2CCCC2C(=O)O)cc1 (configuration not stated),-6,-3%,2.7%,2%
COc1ccc(N(CC(=O)N2c3ccccc3CC2C)S(=O)(=O)c2c(C)nn(C)c2C)cc1 (configuration not stated),-5,0%,-2.0%,12%
Cn1cccc1-c1cc(C(=O)N/N=C/c2ccccc2Cl)[nH]n1,x,-50%,-0.5%,-1%
CN1CCN(c2nnc(-c3cccs3)c3ccccc23)CC1,2,-9%,0.4%,-9%
CCOC(=O)c1ccc(NC(=O)CN2C(=O)CN(C(C)=O)C2=S)cc1,x,-2%,-0.6%,0%
O=C(c1ccco1)N1CCN(S(=O)(=O)c2cccc([N+](=O)[O-])c2)CC1,1,-5%,-3.1%,6%
O=C(NCC1CCCO1)C1CC(=O)N(C2CCCCCC2)C1 (configuration not stated),-7,1%,5.0%,2%
Cc1ccc(C)c(NC(=O)CCc2nnc3ccc(NCc4ccco4)nn23)c1,x,-2%,-2.3%,2%
Cc1cc(C(=O)CSc2nnc(Cc3ccccc3)o2)c(C)n1Cc1ccc2c(c1)OCO2,7,8%,-4.3%,8%
Cc1ccc(S(=O)(=O)NCc2ccccc2)cc1C(=O)NCC(C)(C)N1CCOCC1,x,x,1.6%,16%
CCCn1c(SCC(=O)N2CCOCC2)nnc1-c1ccncc1,x,-3%,2.4%,19%
COc1ccc(CNS(=O)(=O)c2ccc3c(c2)N(C(C)=O)CC(C)S3)cc1 (configuration not stated),x,16%,4.1%,1%

# Of the compounds above, two have a COOH group.
SMILES,GLA inh pH 4.5,miR-21 reporter,Rango-impB inh,Rango dissoc inh
CN(C)c1ccnc(C(=O)O)c1,1,0%,-2.3%,0%
CCCOc1ccc(C(=O)N2CCCC2C(=O)O)cc1 (configuration not stated),-6,-3%,2.7%,2%

# Next part:
SMILES,GLA inh pH 4.5,miR-21 reporter,Rango-impB inh,Rango dissoc inh
CCCC(=O)c1cn(CC(=O)OC)c2ccccc12,-12,5%,-2.5%,8%
O=C(Nc1nc(-c2cc(F)ccc2F)cs1)C1=COCCO1,x,x,-2.2%,5%
CC1CCCCN1S(=O)(=O)c1ccc(N(C(=O)c2cnccn2)C(C(=O)NC2CCCCC2)c2cccs2)cc1 (configuration not stated),0,-13%,-5.0%,-9%
CC(=O)COC(=O)C1CCN(S(=O)(=O)c2cc([N+](=O)[O-])ccc2Cl)CC1,-8,-16%,0.1%,1%
O=C(Nc1ccc(N2CCN(C(=O)c3ccco3)CC2)cc1)c1ccco1,4,-22%,0.7%,6%
O=C(CNC(=O)c1ccc(Br)o1)Nc1ccccc1,x,0%,-2.7%,1%
CC1CC1C(=O)OCC(=O)NC(=O)c1ccc(C(C)(C)C)cc1 (configuration not stated),x,x,4.7%,-4%
COc1ccc(CNC(=O)CN2C(=O)NC(Cc3ccccc3)(c3ccccc3)C2=O)cc1OC (configuration not stated),x,x,-1.2%,-13%
Nc1cc(-c2cccc(Br)c2)nn1Cc1ccccc1,u,-6%,2.3%,-14%
Cc1nn(-c2ccccc2)c(C)c1/C=C/C(=O)OC(C)C(N)=O (configuration not stated),7,-24%,-0.7%,8%

# In another format: entries from further up
Molecule: COc1ccc(CNC(=O)CN2C(=O)NC(Cc3ccccc3)(c3ccccc3)C2=O)cc1OC (configuration not stated)
  GLA inh pH 4.5 = x | miR-21 reporter = x | Rango-impB inh = -1.2% | Rango dissoc inh = -13%

Molecule: Cc1nn(-c2ccccc2)c(C)c1/C=C/C(=O)OC(C)C(N)=O (configuration not stated)
  GLA inh pH 4.5 = 7 | miR-21 reporter = -24% | Rango-impB inh = -0.7% | Rango dissoc inh = 8%

Molecule: CC1CCCCN1S(=O)(=O)c1ccc(N(C(=O)c2cnccn2)C(C(=O)NC2CCCCC2)c2cccs2)cc1 (configuration not stated)
  GLA inh pH 4.5 = 0 | miR-21 reporter = -13% | Rango-impB inh = -5.0% | Rango dissoc inh = -9%

Molecule: O=C(Nc1nc(-c2cc(F)ccc2F)cs1)C1=COCCO1
  GLA inh pH 4.5 = x | miR-21 reporter = x | Rango-impB inh = -2.2% | Rango dissoc inh = 5%

# (continued)
SMILES,GLA inh pH 4.5,miR-21 reporter,Rango-impB inh,Rango dissoc inh
O=C(C1CCCN(Cc2cc(Br)ccc2O)C1)N1CCCCC1 (configuration not stated),x,1%,0.1%,14%
O=C(Cc1ccc(F)cc1)Nc1c(C(=O)N2CCN(c3ncccn3)CC2)oc2ccccc12,x,0%,2.1%,-8%
C/C(=N\NC(=O)c1ccccc1Cl)c1ccccn1,x,-43%,-1.6%,0%
CCOC(=O)c1cc(CC)sc1NC(=O)c1ccc([N+](=O)[O-])c(N2CCOCC2)c1,-5,4%,5.3%,2%
Cc1cc(C)c(NC(=O)/C=C\C(=O)O)c([N+](=O)[O-])c1,0,-1%,-2.0%,-4%
COc1ccc(/C=N/NC(=O)c2nn(-c3ccc(C)c(C)c3)c(=O)c3ccccc23)cc1,5,-1%,-3.8%,16%
CC(=O)Nc1cccc(C(=O)N2CCN(S(=O)(=O)Cc3ccccc3)CC2)c1,x,x,-0.8%,0%
Nc1cc(C(=O)OCC(=O)NCCNC(=O)COC(=O)c2ccc(Cl)c(N)c2)ccc1Cl,x,-3%,-2.8%,-8%
CN(CC(=O)Nc1ccc(F)cc1)C(=O)COC(=O)/C=C/c1ccccc1[N+](=O)[O-],x,x,0.3%,-6%
O=C(c1ccco1)N1CCN=C1SCc1ccccc1Cl,-4,-7%,1.9%,9%
COc1ccccc1NC(=O)C1CC(C)OC1=O (configuration not stated),x,x,-0.3%,5%
O=C(NC1CCCCC1)c1cc(-c2ccccc2Cl)on1,x,-55%,-0.3%,24%
COc1ccccc1NS(=O)(=O)c1cc(C(=O)NCCC(C)C)ccc1F,8,0%,2.0%,-9%

# Profiles from above. Order of screens: GLA inh pH 4.5	miR-21 reporter	Rango-impB inh	Rango dissoc inh
# Shown for CC(=O)Nc1cccc(C(=O)N2CCN(S(=O)(=O)Cc3ccccc3)CC2)c1 → x	x	-0.8%	0%
# Shown for Nc1cc(C(=O)OCC(=O)NCCNC(=O)COC(=O)c2ccc(Cl)c(N)c2)ccc1Cl → x	-3%	-2.8%	-8%
# Shown for O=C(c1ccco1)N1CCN=C1SCc1ccccc1Cl → -4	-7%	1.9%	9%
# Shown for CCOC(=O)c1cc(CC)sc1NC(=O)c1ccc([N+](=O)[O-])c(N2CCOCC2)c1 → -5	4%	5.3%	2%
